Screening results from PubChem.
Six1-Eya2 blk: blocks human Six1 binding to Eya2; activity change, % (no concentration beside the values); AlphaScreen GST-Six1/His-Eya2 binding, biochemical; stronger effect = lower value; control for the full effect not named in the record; hit rate 0.56% among 360,000; AID 651725; in the data active = activity change below about -65%; inconclusive = about -30% to -65%; inactive = above about -30%; also: % is scaled to controls: 0 for no effect and ±100 for the full control effect; compound concentration not given in the record
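AlphaScreen luminescence read after one hour at 37 °C in darkness. Pin-transferred compounds met GST-Six1 and His-Eya2 protein (5X stock 250 nM/500 nM) plus glutathione donor and Ni-chelate acceptor beads (5X, 50 ug/mL).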
TRPV1 PAM: potentiators of human vanilloid receptor 1 (TRPV1); TRPV1-expressing cells, Fluo-8 calcium influx, capsaicin EC20 potentiation; host cell line not named in the record; control for the full effect not named in the record; potentiation, % at 8.33 µM; hit rate 0.02% among 320,000; Q8NER1; active means potentiation above 80%; inconclusive means 30% to 80%; inactive means below 30%; also: 0% is about no effect
Target sequence (Q8NER1 whole entry, looked up): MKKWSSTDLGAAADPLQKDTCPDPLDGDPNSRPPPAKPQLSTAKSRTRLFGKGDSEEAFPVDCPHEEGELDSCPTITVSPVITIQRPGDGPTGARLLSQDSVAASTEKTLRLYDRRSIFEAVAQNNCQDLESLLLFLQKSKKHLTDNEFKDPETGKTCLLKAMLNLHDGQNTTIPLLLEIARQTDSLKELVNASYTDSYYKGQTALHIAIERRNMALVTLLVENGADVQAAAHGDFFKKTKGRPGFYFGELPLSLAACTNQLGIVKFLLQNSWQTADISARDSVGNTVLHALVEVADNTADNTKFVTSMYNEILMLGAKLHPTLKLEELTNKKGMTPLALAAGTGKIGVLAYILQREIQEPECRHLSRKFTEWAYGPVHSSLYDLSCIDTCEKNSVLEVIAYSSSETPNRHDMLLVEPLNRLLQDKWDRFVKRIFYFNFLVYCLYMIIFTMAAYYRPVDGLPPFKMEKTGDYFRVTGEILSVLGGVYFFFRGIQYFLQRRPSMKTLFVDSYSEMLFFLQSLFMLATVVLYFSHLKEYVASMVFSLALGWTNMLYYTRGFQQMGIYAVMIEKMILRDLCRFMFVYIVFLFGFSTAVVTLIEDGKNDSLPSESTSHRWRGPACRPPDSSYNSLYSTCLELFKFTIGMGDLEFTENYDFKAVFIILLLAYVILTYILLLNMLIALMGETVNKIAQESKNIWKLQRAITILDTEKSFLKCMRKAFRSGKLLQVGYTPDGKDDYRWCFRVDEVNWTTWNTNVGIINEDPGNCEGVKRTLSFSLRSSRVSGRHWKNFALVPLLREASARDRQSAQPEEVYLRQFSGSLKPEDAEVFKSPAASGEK
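TRPV1-expressing cells were cultured overnight at 35.5C and loaded with Fluo-8 calcium dye for 40 to 90 min at room temperature. After a 10 s baseline, compound was added and calcium influx was read kinetically for 3 min (ex 480/em 520 nm).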
CtBP-E1A blk: blocks the CtBP interaction with E1A | AlphaScreen GST-E1A/His-CtBP binding, 1536-well; stronger effect = lower value; control for the full effect not named in the record | activity change, % (concentration not given with the values) | hit rate 0.49% among 340,000 | AID 651724; in the data active means activity change below about -65%; inconclusive means about -30% to -65%; inactive means above about -30%; also: % is scaled to controls: 0 for no effect and ±100 for the full control effect
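AlphaScreen with 125 nM GST-E1A and 125 nM His-CtBP (5X stocks) in Tris pH 8.0, 300 mM NaCl, BSA, Tween 20, TCEP. Compounds preincubated 2 h at 37 deg C, then glutathione donor/nickel acceptor beads added for 1 h at 37 deg C in dark.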
TRPML1 ag: human mucolipin-1 channel agonism. activation, % (no concentration beside the values). TRPML1-expressing cells, Ca2+ dye fluorescence, FDSS; host cell line not named in the record; reference of the full effect not given here. Q9GZU1. hit rate 0.12% among 410,000. AID 624414; in the data active = activation above about 50%; inconclusive = about 30% to 50%; inactive = below about 30%; also: 0% is about no effect; the text of the record puts the active cut at 80%
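Cells: TRPML1-DL, 1X Tet inducer, ~16 h at 37 degrees C/5% CO2. Dye: ABD Ca8 no-wash + quencher, 45-90 min RT. Read: 10 s baseline, compound add, 110 s agonist phase; 54-4 EC80 (4uM final), 110 s antagonist phase.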
D2 potentiator: human D2 receptor positive allosteric modulation; DiscoveRx D2 beta-arrestin cells, luminescence, 90 min; 100% = 57 uM dopamine signal; potentiation, % (test concentration not listed); hit rate 0.23% among 360,000; AID 624464; active = potentiation of 50% or more; inconclusive = 30% to 50%; inactive = 30% or less;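 also: compound concentration not given in the record; tested on top of an EC20 dose of dopamine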
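PathHunter beta-arrestin assay in DiscoveRx D2 cells. Compounds were added with an EC20 of dopamine (50 nM final) for 90 min at 37 deg C. Luminescence was read 1 h after detection reagent, with 57 uM dopamine as the EC100 control.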
TRPML1 blocker: human mucolipin-1 channel inhibition | TRPML1-inducible cells, Ca2+ dye fluorescence, FDSS; stronger effect = lower value; inhibition of EC80 agonist-evoked calcium signal | Q9GZU1 | hit rate 0.02% among 390,000 | activity change, negative = inhibition, % (test concentration not listed); in the data active means activity change below about -50%; inconclusive means about -30% to -50%; inactive means above about -30%;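 also: stimulus is agonist 54-4 at its EC80 concentration; % is scaled to controls: 0 for no effect and ±100 for the full control effect; compound concentration not given in the record; the text of the record puts the active cut at -80%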
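TRPML1-DL cells, Tet-induced overnight (~16 h, 37 °C) at 1,500 cells/well, were loaded with Ca8 no-wash dye plus quencher for 45-90 min at room temperature. Compounds were pinned during FDSS kinetic reading; agonist 54-4 at EC80 (4 uM final) then added.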
Active calls of the source: *.

Sample of the layout (five entries):
CCCCCC(=O)Nc1ccc(-c2csc(C)n2)cc1 was read as Six1-Eya2 blk 3, TRPV1 PAM 9, CtBP-E1A blk -1, TRPML1 ag 0.0, D2 potentiator -13 and TRPML1 blocker -6.
Screening N#Cc1cc2cc3c(cc2nc1SCC(=O)N1CCOCC1)OCCO3 returned Six1-Eya2 blk 14, TRPV1 PAM 30, CtBP-E1A blk 7, TRPML1 ag 0.5, D2 potentiator 1 and TRPML1 blocker 3.
Screening Cc1cccc(COCC(Cc2ccccc2)N2CCN(C(=O)c3cccc(Cl)c3)CCC2=O)c1 (centres undefined) returned Six1-Eya2 blk -9, TRPV1 PAM -10, CtBP-E1A blk -24, TRPML1 ag 2.5, D2 potentiator -3 and TRPML1 blocker 25.
For C/C(=N/Nc1nc(-c2ccccc2)cc(-c2ccc(F)cc2)n1)c1cccc(N)c1 the results were Six1-Eya2 blk -11, TRPV1 PAM 7, CtBP-E1A blk -14, TRPML1 ag -0.5, D2 potentiator -25 and TRPML1 blocker -2.
For Cc1noc(NS(=O)(=O)c2ccc(NC(=O)CSc3nnc(-c4ccccc4)n3C3CCCCC3)cc2)c1C the results were Six1-Eya2 blk 18, TRPV1 PAM 4, CtBP-E1A blk 32, TRPML1 ag 0.0, D2 potentiator 10 and TRPML1 blocker 3.

Results, repeating the preview:
CCCCCC(=O)Nc1ccc(-c2csc(C)n2)cc1 was read as Six1-Eya2 blk 3, TRPV1 PAM 9, CtBP-E1A blk -1, TRPML1 ag 0.0, D2 potentiator -13 and TRPML1 blocker -6.
Screening N#Cc1cc2cc3c(cc2nc1SCC(=O)N1CCOCC1)OCCO3 returned Six1-Eya2 blk 14, TRPV1 PAM 30, CtBP-E1A blk 7, TRPML1 ag 0.5, D2 potentiator 1 and TRPML1 blocker 3.
Screening Cc1cccc(COCC(Cc2ccccc2)N2CCN(C(=O)c3cccc(Cl)c3)CCC2=O)c1 (centres undefined) returned Six1-Eya2 blk -9, TRPV1 PAM -10, CtBP-E1A blk -24, TRPML1 ag 2.5, D2 potentiator -3 and TRPML1 blocker 25.
For C/C(=N/Nc1nc(-c2ccccc2)cc(-c2ccc(F)cc2)n1)c1cccc(N)c1 the results were Six1-Eya2 blk -11, TRPV1 PAM 7, CtBP-E1A blk -14, TRPML1 ag -0.5, D2 potentiator -25 and TRPML1 blocker -2.
For Cc1noc(NS(=O)(=O)c2ccc(NC(=O)CSc3nnc(-c4ccccc4)n3C3CCCCC3)cc2)c1C the results were Six1-Eya2 blk 18, TRPV1 PAM 4, CtBP-E1A blk 32, TRPML1 ag 0.0, D2 potentiator 10 and TRPML1 blocker 3.
Screening Cc1nc2ccccc2nc(C)c1=NO returned Six1-Eya2 blk -6, TRPV1 PAM 10, CtBP-E1A blk 1, TRPML1 ag -0.7, D2 potentiator -1 and TRPML1 blocker 4.
For CC(C)Cn1c(N)c(C(=O)CSc2n[nH]c(N)n2)c(=O)n(C)c1=O the results were Six1-Eya2 blk -10, TRPV1 PAM -2, CtBP-E1A blk -7, TRPML1 ag 0.2, D2 potentiator 0 and TRPML1 blocker -10.
CCC(C(=O)OC)n1cnc2scc(-c3ccc(C)c(C)c3)c2c1=O (centres undefined) was read as Six1-Eya2 blk 4, TRPV1 PAM -3, TRPML1 ag 2.4, D2 potentiator -25 and TRPML1 blocker 27.
Screening CCOc1cc(N2CCOCC2)c(OCC)cc1NC(=O)C(NC(=O)c1ccco1)C(C)C (centres undefined) returned Six1-Eya2 blk 5, TRPV1 PAM -8, CtBP-E1A blk -6, TRPML1 ag -0.9, D2 potentiator 0 and TRPML1 blocker 6.
For COc1ccccc1OC(C)C(=O)Nc1ccccc1C(=O)NCC1CCCO1 (centres undefined) the results were Six1-Eya2 blk 24, TRPV1 PAM -10, CtBP-E1A blk -8, TRPML1 ag 0.0, D2 potentiator -6 and TRPML1 blocker -27.
For Nc1c(Cl)ncnc1N/N=C/c1cccnc1 the results were Six1-Eya2 blk -8, TRPV1 PAM 11, CtBP-E1A blk -8, TRPML1 ag 0.4, D2 potentiator -11 and TRPML1 blocker 14.
CCC1=C(OC(=O)N(CC)CC)N2C(=O)OC(=NCCOC)[C@]2(Cc2ccccc2)[C@H]2C1=CC[C@H]1C(=O)NC(=O)[C@H]12 was read as Six1-Eya2 blk -16, TRPV1 PAM -17, CtBP-E1A blk -9, TRPML1 ag -0.3, D2 potentiator -9 and TRPML1 blocker -1.
`CCC(=O)N1c2ccccc2NC2=C(C(=O)CC(C)(C)C2)C1c1ccc(O)c(OC)c1` (centres undefined) gave Six1-Eya2 blk 3, TRPV1 PAM -10, CtBP-E1A blk -17, TRPML1 ag -0.6, D2 potentiator -5 and TRPML1 blocker 3.
For COc1ccc(C(=O)OCC(=O)NCCCc2ccccc2)cc1[N+](=O)[O-] the results were Six1-Eya2 blk 1, TRPV1 PAM -10, CtBP-E1A blk -1, TRPML1 ag -0.8, D2 potentiator -11 and TRPML1 blocker -4.
For COc1cc(C(c2c(O)cc(C)[nH]c2=O)c2c(O)cc(C)[nH]c2=O)ccc1O the results were Six1-Eya2 blk 7, TRPV1 PAM 9, CtBP-E1A blk 2, TRPML1 ag 1.1, D2 potentiator -1 and TRPML1 blocker 0.
Screening COC(=O)c1ccc(CSc2nnc(N)s2)o1 returned Six1-Eya2 blk -11, TRPV1 PAM -20, CtBP-E1A blk -15, TRPML1 ag 1.0, D2 potentiator -2 and TRPML1 blocker 2.
`CCN(CC)P(=O)(c1ccccc1)c1c(C)nc2ccccn12` (centres undefined) gave Six1-Eya2 blk 5, TRPV1 PAM 17, CtBP-E1A blk 2, TRPML1 ag -0.5, D2 potentiator -3 and TRPML1 blocker 5.
Screening O=C(Nc1ccc2c(c1)OCO2)c1ccncc1 returned Six1-Eya2 blk -4, TRPV1 PAM -2, CtBP-E1A blk 0, TRPML1 ag -0.3, D2 potentiator 24 and TRPML1 blocker -1.
Screening Cc1noc(C)c1C(=O)NCCCc1ccccc1 returned Six1-Eya2 blk 9, TRPV1 PAM 10, CtBP-E1A blk 1, TRPML1 ag 1.3, D2 potentiator -8 and TRPML1 blocker 3.
O=C(NCc1ccccc1Br)c1cccc2c1C(=O)c1ccc(N3CCC(Cc4ccccc4)CC3)cc1S2(=O)=O was read as Six1-Eya2 blk 2, CtBP-E1A blk 0, TRPML1 ag 1.5, D2 potentiator 1 and TRPML1 blocker -8.
`COc1ccc(NC(=O)CSCC(=O)OCc2cccc(OC)c2OC)cc1` gave Six1-Eya2 blk 2, TRPV1 PAM -4, CtBP-E1A blk 3, TRPML1 ag -0.5, D2 potentiator -5 and TRPML1 blocker 12.
Brc1ccc(C2=CC(c3ccco3)n3nnnc3N2)cc1 (centres undefined) was read as Six1-Eya2 blk 3, TRPV1 PAM 17, CtBP-E1A blk 15, TRPML1 ag -0.3, D2 potentiator -1 and TRPML1 blocker -21.
Screening Cc1ccc(C(C[N+](=O)[O-])c2c(C)cc3ccccn23)cc1 (centres undefined) returned Six1-Eya2 blk -12, TRPV1 PAM -10, CtBP-E1A blk -6, TRPML1 ag -0.1, D2 potentiator -4 and TRPML1 blocker 19.
Screening CCC(Oc1ccccc1)C(=O)NC1C(=O)N2C1SC(C)(C)C2C(=O)O (centres undefined) returned Six1-Eya2 blk -2, TRPV1 PAM 3, CtBP-E1A blk 3, TRPML1 ag -0.4, D2 potentiator 4 and TRPML1 blocker 3.
For O=C(COC(=O)c1ccc(F)c(S(=O)(=O)N2CCOCC2)c1)c1ccccc1 the results were Six1-Eya2 blk 7, CtBP-E1A blk 10, TRPML1 ag -0.1, D2 potentiator 1 and TRPML1 blocker 10.
Screening COCC(=O)N[C@@H]1c2ccccc2CC[C@@H]1OCc1ccccc1 returned Six1-Eya2 blk -4, CtBP-E1A blk 4, TRPML1 ag -0.8 and TRPML1 blocker -1.
Screening CCC(=O)c1ccc(OCC(=O)OCC(=O)N2CCc3ccccc32)cc1 returned Six1-Eya2 blk -1, TRPV1 PAM 6, CtBP-E1A blk 0, TRPML1 ag 0.6, D2 potentiator -4 and TRPML1 blocker 12.
Screening CN(C)CCNC(=O)c1cccc(-c2cnc3c(NC=O)cc(-c4ccccc4F)cn23)c1 returned Six1-Eya2 blk -12, CtBP-E1A blk -11, TRPML1 ag -0.3 and D2 potentiator 2.
Screening Cc1ccc(N2NC(=O)/C(=C/C=C/c3ccco3)C2=O)cc1C returned Six1-Eya2 blk 7, TRPV1 PAM inconclusive, CtBP-E1A blk 5, TRPML1 ag -0.5, D2 potentiator -4 and TRPML1 blocker 7.
CCOC(=O)c1ccc(NC(=O)CC2C(=O)N(c3cccc(OC)c3)C(=O)N2CCOC)cc1 (centres undefined) was read as Six1-Eya2 blk -10, TRPV1 PAM 2, CtBP-E1A blk -2, TRPML1 ag -0.8, D2 potentiator -12 and TRPML1 blocker 58.
O=C(CCCOc1ccc(Br)cc1)Nc1ccc(S(=O)(=O)N2CCOCC2)cc1 was read as Six1-Eya2 blk -6, TRPV1 PAM -7, CtBP-E1A blk -1, TRPML1 ag 0.1, D2 potentiator -3 and TRPML1 blocker 4.
`COc1ccc(C(=O)NCCN(C)C)c2nc3ccccc3cc12` gave Six1-Eya2 blk -1, CtBP-E1A blk 7, TRPML1 ag -0.4, D2 potentiator -25 and TRPML1 blocker -15.
`COc1cccc(-c2cc(C(F)(F)F)nc(NCc3ccco3)n2)c1` gave Six1-Eya2 blk 8, TRPV1 PAM -2, CtBP-E1A blk 21, TRPML1 ag 1.0, D2 potentiator -15 and TRPML1 blocker -6.
Screening N#Cc1c(SCC(=O)Nc2ccc(Cl)cc2Cl)sc2c(O)cc(=O)[nH]c12 returned Six1-Eya2 blk -13, TRPV1 PAM 1, CtBP-E1A blk -24, TRPML1 ag -0.2, D2 potentiator -8 and TRPML1 blocker 15.
For Cc1ccc(Cn2c(Sc3ncccn3)nc3c2c(=O)[nH]c(=O)n3C)cc1 the results were Six1-Eya2 blk 0, TRPV1 PAM -1, CtBP-E1A blk 1, TRPML1 ag 0.6, D2 potentiator -6 and TRPML1 blocker 23.
For COc1ccccc1C1c2[nH]c3ccccc3c2CCN1Cc1ccc(NC(C)=O)s1 (centres undefined) the results were Six1-Eya2 blk -19, TRPV1 PAM 15, TRPML1 ag -0.1, D2 potentiator -21 and TRPML1 blocker -26.
Screening CC(C)(C)OC(=O)N(CCc1ccccc1)Cc1ccccc1OCc1cccc(NC(=O)/C=C/c2ccccc2)c1 returned Six1-Eya2 blk -1, CtBP-E1A blk 1, TRPML1 ag 0.4 and TRPML1 blocker -5.
Screening Cc1nn(Cc2ccccc2Cl)c(C)c1C(=O)N(C)CC(=O)Nc1cccc(F)c1 returned Six1-Eya2 blk 5, TRPV1 PAM 2, TRPML1 ag -0.3, D2 potentiator -5 and TRPML1 blocker 13.
CC1CC(C)CN(C(=O)COC(=O)C2CCN(S(=O)(=O)c3c(Cl)cccc3Cl)CC2)C1 (centres undefined) was read as Six1-Eya2 blk 3, TRPV1 PAM 21, CtBP-E1A blk -2, TRPML1 ag 1.2, D2 potentiator -8 and TRPML1 blocker 30.
